N370S GC mod: qHTS Assay for Inhibitors and Activators of N370S glucocerebrosidase as a Potential Chaperone Treatment of Gaucher Disease; N370S GC spleen homogenate, 4MU-glucoside fluorescence; Potency, µM (top dose mostly 59.4 µM), inactives show at the top dose activity change, negative = inhibition, actives largely listed as inhibitors; 0.092% of 330,000 active; AID 2101, 2009;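 further: 0% = full enzyme activity and -100% = no enzyme basal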
FEN1 inh: qHTS Assay for the Inhibitors of Human Flap endonuclease 1 (FEN1) | AID 588795, 2011 | Potency, µM (series often up to 114 µM), inactives show at the top dose activity change, negative = inhibition, hits mostly inhibitors | Recombinant FEN1 flap cleavage, fluorescence, 15 min | 0.35% of 390,000 active; further: nearly all actives have a fitted effect of over 65% in size
Target sequence (P39748 whole entry, looked up): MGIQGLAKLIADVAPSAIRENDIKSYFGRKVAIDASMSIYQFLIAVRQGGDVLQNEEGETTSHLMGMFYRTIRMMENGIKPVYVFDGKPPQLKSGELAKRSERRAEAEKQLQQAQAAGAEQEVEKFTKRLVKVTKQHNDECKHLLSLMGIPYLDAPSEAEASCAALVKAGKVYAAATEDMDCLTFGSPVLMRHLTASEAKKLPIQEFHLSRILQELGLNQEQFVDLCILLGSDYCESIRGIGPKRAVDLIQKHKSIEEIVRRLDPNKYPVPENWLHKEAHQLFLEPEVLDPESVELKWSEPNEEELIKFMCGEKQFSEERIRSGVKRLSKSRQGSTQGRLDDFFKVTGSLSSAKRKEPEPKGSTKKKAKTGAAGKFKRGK
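Quantitative HTS format: each compound was titrated, incubated with 10 nM nuclease for 15 min at room temperature, then challenged with flap substrate at 50 nM final. Signal change over 15 min gave concentration–effect curves.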
The depositor's hits bear a star; u = inconclusive; x = no result given; [ ] = remark or other dose. The call rests on the fitted dose curve; in most records, active means well fitted curve in the direction sought with a large enough effect; inconclusive means small, poorly fitted or top-dose-only effect, or another doubt; inactive means no such curve, though single readings can be large; an effect the other way counts as inactive or inconclusive. Unless noted, on the % scale 0 is the no-effect control and ±100 the full control effect; potency means the concentration at half of the fitted maximal effect. Not all compounds are listed, and most or all hits are left out here.

SMILES	FEN1 inh	N370S GC mod
Cc1ccc(C(=O)N2CCC(c3c[nH]c4ccccc34)(c3c[nH]c4ccccc34)CC2)cc1	-4%	x
COC(=O)c1ccc(C)c(NC(=O)CCCN2C(=O)CN(C)C2=O)c1	-13%	x
O=C(Nc1ccncc1)C1(c2ccccc2)CCCC1	2%	-8%
C/C(=N\NC(=O)c1cccc(S(=O)(=O)N2CCOCC2)c1)c1ccc(C)cc1	19%	x
Cc1ccnc(NC(=O)CCCOc2ccc(Cl)cc2C)c1	x	1%
COc1ccc(-c2cc(C(=O)N3CCN(C(=O)c4ccco4)CC3)[nH]n2)cc1	21%	-3%
CC(C)n1c(SCC(=O)c2ccc3c(c2)OCCO3)nc2c1c(=O)n(C)c(=O)n2C	8%	-16%
C#CCOCCOCCOCCNc1nc(N2CCN(C(=O)CCCCCCCCCCNC(=O)Cn3cc(CCCCCN)nn3)CC2)nc(N2CCN(C(=O)CCCCCCCCCCNC(=O)Cn3cc(CCCCCN)nn3)CC2)n1	89µM*	-20%
CCCCNC(=O)[C@@H]1CCCN1S(=O)(=O)c1cccc2cccnc12	0%	-6%
CCOC(=O)c1ccc(N/C(=N/S(=O)(=O)c2ccccc2)c2ccccc2)cc1	-2%	6%
CCn1c(SCC(=O)c2cc(OC)ccc2OC)nnc1C(C)C	23%	7%
O=C(NCc1ccccn1)c1ccc(Cl)c(NC2=NC3CS(=O)(=O)CC3S2)c1 (centres undefined)	20%	11%
COc1ccccc1CNc1nc(-c2cc(C)n(C)c2C)cs1	-4%	-15%
Cc1cc(=O)n(Cc2cccc(Cl)c2)c2c1c(C)nn2C	-7%	x
COc1ccc2[nH]c3c(=O)n(Cc4ccc(C(=O)N5CCCCCC5)cc4)c(=S)[nH]c3c2c1	-7%	-3%
COc1ccccc1-c1ccc(SCC(=O)NCc2ccc3c(c2)OCO3)nn1	-1%	-2%
C=C1C[C@@]23C[C@]1(O)CC[C@@H]2[C@]12C=C[C@@H](O)[C@](C)(C(=O)O1)[C@H]2[C@H]3C(=O)O	x	9%[21.6 µM]
CC1(C)Cc2ccccc2-c2nc3n(c(=O)c21)CCS3	-2%	1%
O=C(c1cccs1)N(Cc1cccnc1)c1nc2ccc(F)cc2s1	7%	x
CCc1nc(Nc2ccc3c(c2)OCCO3)c2oc3ccccc3c2n1	u	-11%

Next section
SMILES	FEN1 inh	N370S GC mod
COC(=O)CNC(=O)C(C)NC(=O)OCc1ccccc1 (centres undefined)	0%	1%
O=C(CCCCC(=O)NCc1cccs1)NCc1cccs1	1%	3%
O=C(NCCCN1CCCC1)c1ccc(Cn2c(=S)[nH]c3ccc(Br)cc3c2=O)cc1	x	-16%
O=[N+]([O-])c1cc(-c2ccn[nH]2)ccc1Cl	9%	-9%
COc1ccc(-c2csc(C)n2)cc1OC	-11%	-6%
O=C(Nc1cc(C(=O)N2CCCC2)ccc1N1CCCC1)c1ccccc1F	3%	12%
Cc1nn(CCCC(=O)O)c(C)c1[N+](=O)[O-]	0%	-19%
O=C(CCc1ccccc1)NC(=S)Nc1ccccc1[N+](=O)[O-]	6%	9%
Cc1ccccc1C(=O)NN(C)c1nc2ccccc2nc1C(F)(F)F	7%	u
CCCCCNC(=O)c1c[nH]c2ccc(S(=O)(=O)N3CCC(C)CC3)cc2c1=O	16%	x
Cc1cccc(-c2nnn3c2nc(NCCC(C)C)c2ccccc23)c1	0%	x
Cn1c(NC(=O)c2ccc(Cl)cc2)cc(=O)n(C)c1=O	-18%	-5%
CN(C(=O)CSc1nncc2ccccc12)C1CCCCC1	-5%	13%
CCC(Sc1nc2cc(OC)c(OC)cc2c(=O)n1CCc1ccc(Cl)cc1)C(=O)NCCOC (centres undefined)	1%	x
O=C(N/N=C/c1ccco1)c1ccccn1	4%	5%
O=C(CN1CCCCC1)N/N=C/c1ccccc1OCc1ccccc1	1%	0%
Cn1c(=O)c([N+](=O)[O-])c(NCC2CCCO2)c2ccccc21 (centres undefined)	-10%	4%
O=c1nc2n(c3cccc(Cl)c13)CCCCC2	19%	-20%
COc1cccc(C(=O)Oc2ccc(N3C(=O)CCC3=O)c(C)c2)c1	9%	5%
COc1ccc(C2C3=C(CCCC3=O)Nc3nc(C(F)(F)F)nn32)c(OC)c1OC (centres undefined)	-1%	2%

(further entries)
SMILES	FEN1 inh	N370S GC mod
CN(C(=O)Cn1nnc(-c2ccc(F)cc2)n1)C1CCS(=O)(=O)C1 (centres undefined)	-19%	x
CC(C)(C)NC(=O)CSc1nnc(Cc2ccccc2)n1CC1CCCO1 (centres undefined)	-2%	-5%
COCCSc1nnc(NC(=O)CSc2ccccc2)s1	-2%	-14%
CCOc1ccc(NC(=O)C(NS(=O)(=O)c2ccc3c(c2)CCN3C(C)=O)C(C)C)cc1 (centres undefined)	17%	x
O=c1[nH]c(NCc2ccccc2)nc2c1CCC2	-11%	-4%
O=C(NC1CC2CCCC(C1)N2C(=S)Nc1ccccc1)C1CC1 (centres undefined)	12%	-13%
O=C(CC(O)(C(F)(F)F)C(F)(F)F)Nc1ccc(Cl)c(Cl)c1	-7%	3%
O=C(CCc1nc(-c2cccs2)no1)NCc1ccc(F)cc1Cl	14%	1%
Cc1ccc(S(=O)(=O)NCC(=O)OCc2ccccc2Br)cc1	1%	0%
COc1cccc(/C=C/C(=O)OCC(=O)c2cc(C)n(CC3CCCO3)c2C)c1OC (centres undefined)	1%	17%
O=C(Nc1ccc(S(=O)(=O)Nc2ncccn2)cc1)c1ccc(S(=O)(=O)N2CCCC2)cc1	-5%	-7%
Cc1ccc(NC(=O)C2CCN(S(=O)(=O)c3cc(-c4noc(C)n4)ccc3C)CC2)c(C)c1	0%	x
CCOc1cccc(NC(=O)CSc2ncc(-c3ccc(Cl)cc3)[nH]2)c1	7%	x
Cc1ccnc(NC(=O)c2ccc(COc3ccc(Cl)cc3)o2)c1	-22%	7%
O=C(Nc1ccc(F)cc1)N1CCN(c2ccccc2F)CC1	7%	x
COc1cccc(C(=O)c2sc3nc(-c4ccccc4)cc(C(F)(F)F)c3c2N)c1	-5%	x
O=C(O)c1cc(NC2(c3ccccc3)C(=O)c3ccccc3C2=O)ccc1Cl	-8%	x
O=C(COc1ccccc1)N1CCCCCCC1	-3%	-13%
CN(c1ccccc1)S(=O)(=O)c1cccc(C(=O)Nc2nccs2)c1	4%	-26%
C[C@@H]1C(=O)N(S(=O)(=O)c2ccc([N+](=O)[O-])cc2)[C@H]1c1ccccc1	10%	2%

Continuation:
SMILES	FEN1 inh	N370S GC mod
COc1ccc(Cl)cc1NC(=O)CN(C)C(=O)c1cc2c(s1)CCC(C)C2 (centres undefined)	-10%	u
COCCn1c(C)cc(C(=O)CSc2nc3nc(C)cc(C)n3n2)c1C	-1%	0%
Cc1nnc(NC(=O)CN2CCN(Cc3ccccc3Cl)CC2)s1	-4%	1%
COc1ccc(/C=N/OCC(=O)NC(c2ccccc2)c2ccccc2)c(OC)c1	-3%	u
CC(C)(C)c1cc(C(=O)NCc2cccnc2)ccn1	-2%	20%
O=C(CCNC(=O)c1ccco1)NCc1ccccc1	0%	-4%
O=S(=O)(NC1CCCC1)c1ccccc1Cl	-5%	7%
COc1ccc(C2CC(c3ccccc3)=NN2c2ccc(C(N)=O)cc2)cc1 (centres undefined)	-14%	u
O=C(NCc1ccc2c(c1)OCO2)C1CCCN1S(=O)(=O)c1ccc(F)cc1 (centres undefined)	13%	12%
CCCc1c(O)nc(SC2CC(=O)N(c3cc(OC)ccc3OC)C2=O)[nH]c1=O (centres undefined)	-4%	3%
Cc1ccccc1Nc1nc(N)nc(CN2CCN(c3ccccn3)CC2)n1	8%	0%
O=C(N/N=C/c1cccc(F)c1)c1csc2c1CCCC2	-1%	u
Cc1onc(-c2ccccc2)c1-c1ccnc(N)n1	10%	9%
Cc1cccc(C(=O)Nc2ccccc2SCc2cc(=O)c3cccc(C)c3[nH]2)c1	-15%	x
COc1ccc2c(c1)C(c1ccc(C)cc1)CC(=O)O2 (centres undefined)	x	-7%[89.1 µM]
CCOc1ncccc1C(=O)Nc1nnc(C2CC2)s1	-4%	-11%
Cc1csc(=O)n1CCC(=O)OCC(=O)NNC(=O)c1ccc(Cl)cc1	-4%	-11%
Cc1cc(NC(=O)CSc2n[nH]c(CC(C)C)n2)no1	-3%	3%
Cc1ccc(-c2nnc(NC(=O)c3ccco3)s2)cc1	0%	-2%
CC1=NN(c2ccccc2)C(=O)/C1=C/c1c(O)n(-c2ccc(F)cc2)[nH]c1=O	u	-5%

2 records drawn at random from those above:
SMILES	FEN1 inh	N370S GC mod
COc1ccc(C2CC(c3ccccc3)=NN2c2ccc(C(N)=O)cc2)cc1 (centres undefined)	-14%	u
O=C(N/N=C/c1cccc(F)c1)c1csc2c1CCCC2	-1%	u

Remaining list, next part.
SMILES	FEN1 inh	N370S GC mod
COC(=O)C(NS(=O)(=O)c1ccc(C)cc1)c1ccccc1 (centres undefined)	1%	-4%
CCC(C)n1c(SCC(=O)NCc2ccco2)nnc1-c1cccc(S(=O)(=O)N2CCOCC2)c1 (centres undefined)	4%	0%
COc1cc(C(C)=O)ccc1Oc1ncnc2c1cnn2-c1cccc(Cl)c1	-1%	0%
CCOC(=O)C1=C(C)N(CCCCCC(=O)O)C(=O)NC1c1ccccc1Cl (centres undefined)	0%	7%
S=C(NCCN1CCOCC1)NC1CCCC1	-3%	2%
O=C(COc1ccc(S(=O)(=O)N2CCCC2)cc1Cl)NCc1ccccn1	-3%	-3%
CCN1C(=O)CC(N2CCC(Cc3ccccc3)CC2)C1=O (centres undefined)	-12%	-1%
COc1nc(OC)nc(Oc2ccc([N+](=O)[O-])cc2Cl)n1	13%	-12%
O=C(c1ccccc1)c1nccn1-c1ccc(Cl)nn1	18%	-9%
COc1ccc(Cl)cc1NC(=O)CN1CCC(n2nnc3cc(F)ccc32)CC1	-11%	-1%
CCOC(=O)C(=NCCCN1CCOCC1)NNc1cccc(C(F)(F)F)c1	0%	-5%
NC(=O)Cn1cnc2nc3n(c2c1=O)CCC3	4%	2%
O=C(c1ccc2c(c1)OCO2)N1CCCN(C(=O)c2ccc3c(c2)OCO3)CC1	-3%	-2%
CCOP(=O)(c1ccccc1)C1(C#N)CC1 (centres undefined)	-6%	-4%
COc1ccc(OC)c(CCNC(=O)CCc2nnc3ccc(N4CCCCC4)nn23)c1	-5%	-6%
CCOC(=O)N/N=C/c1ccc(F)cc1F	3%	-8%
COc1ccccc1CN1CCC(CNS(=O)(=O)c2cc(-c3cc(C)no3)ccc2OC)CC1	-13%	-9%
COc1ccc(OC)c(S(=O)(=O)N2CCC(c3ccncc3)CC2)c1	-10%	x
COC(=O)c1sccc1NC(=O)c1ccc2c(c1)OCO2	10%	-6%
C#CCOCCOCCOCCNc1nc(N2CCOCC2)nc(N2CCN(C(=O)[C@H](CC(N)=O)n3cc([C@@H](N)C(C)C)nn3)CC2)n1	3%	x

Structural class: the entries above with a COOH group
SMILES	FEN1 inh	N370S GC mod
C=C1C[C@@]23C[C@]1(O)CC[C@@H]2[C@]12C=C[C@@H](O)[C@](C)(C(=O)O1)[C@H]2[C@H]3C(=O)O	x	9%[21.6 µM]
Cc1nn(CCCC(=O)O)c(C)c1[N+](=O)[O-]	0%	-19%
O=C(O)c1cc(NC2(c3ccccc3)C(=O)c3ccccc3C2=O)ccc1Cl	-8%	x
CCOC(=O)C1=C(C)N(CCCCCC(=O)O)C(=O)NC1c1ccccc1Cl (centres undefined)	0%	7%

Further records follow.
SMILES	FEN1 inh	N370S GC mod
CCN1C(=O)C(CC(=O)Nc2ccc(OC)cc2)N(CCc2ccccc2F)C1=S (centres undefined)	-18%	-19%
CCn1c(C(=O)N2CCC(C(=O)N3CCN(c4cccc(C)c4C)CC3)CC2)cc2sccc21	-21%	x
CCC(=O)Nc1cc2[nH]c(=O)cc(C)c2cc1C	-11%	7%
COC(=O)CNS(=O)(=O)c1ccc(OC)cc1	5%	6%
COc1ccc(N(C(=O)c2cc(OC)c(OC)c(OC)c2)S(=O)(=O)c2ccc(C)cc2)cc1	8%	x
CCOc1ccc(N(C)S(=O)(=O)c2cc(-c3cc(C)no3)ccc2C(C)C)cc1	-3%	-12%
O=C(c1cccs1)N1CCn2c1nc1ccccc12	-7%	4%
Cc1ccc(CSc2nnc(-c3ccc(NS(=O)(=O)c4ccccc4)cc3)o2)cc1	-6%	-7%
Cc1ccc(C(=O)NC(c2ccccc2)C(Cl)Cl)cc1 (centres undefined)	8%	20%
COc1cc(C2NC(=O)N(C)C3=C2C(=O)N(c2cccc(Cl)c2)C3)ccc1O (centres undefined)	-23%	x
Cc1nnc(NC(=O)c2ccc3c(c2)OCO3)s1	1%	8%
Nc1ccc(C(=O)OCc2nc3c(ccc4ccccc43)[nH]2)cc1	-17%	10%
Cc1ccc2nc(C)cc(N/N=C/c3cccnc3)c2c1	-1%	-16%
O=C(CCc1nc(-c2ccc(Cl)cc2)no1)NC1CCCCC1	8%	-8%

Screening results deposited in PubChem BioAssay by National Center for Advancing Translational Sciences (NCATS).
